Assay outcomes as filed in PubChem BioAssay.
PINK1 modulator – changes PINK1 expression; Potency, µM (titrated, usually from 76.6 µM), inactives show at the highest dose activation (PINK1 increase), most hits filed as activators; 0.2% of 410,000 active; PINK1 immunofluorescence, high-content cytometry, 24 h; active = well fitted activation curve with a large enough effect; inconclusive = small, poorly fitted or top-dose-only effect; inactive = flat fitted curve, though single readings scatter; cell line not stated here;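 note: potency is the fitted concentration of half-maximal effect; % of control where 0% means no effect; nearly all actives have a fitted effect of over 65% in size; a mitochondrial uncoupler was the plate control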
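Cells are seeded, rested 12 hours, then given compound at five concentrations or DMSO for 24 hours. After fixation, blocking and antibody staining, PINK1 amount and mitochondrial localization are scored; CCCP serves as control.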
D2 PAM – human D2 receptor positive allosteric modulation; P14416; DiscoveRx D2 beta-arrestin cells, luminescence, 90 min; 100% = 57 uM dopamine signal; potentiation, % (test concentration not listed); 0.23% of 360,000 active; AID 624464; active = potentiation of 50% or more; inconclusive = 30% to 50%; inactive = 30% or less;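 note: compound concentration not given in the record; tested on top of an EC20 dose of dopamine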
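D2 cells co-treated with compound plus 50 nM dopamine (EC20) for 90 min at 37 deg C to detect potentiation. Beta-arrestin recruitment was read as enzyme-fragment luminescence after 1 h at ambient temperature. Full response was set by 57 uM dopamine.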
D2 ag – activates the human D2 dopamine receptor; P14416; 0.084% of 360,000 active; activation, % (test concentration not listed); DiscoveRx PathHunter D2 beta-arrestin, luminescence, 90 min; 100% = 57 uM dopamine signal; in the data active = activation above about 40%; inconclusive = about 15% to 40%; inactive = below about 15%; note: compound concentration not given in the record; the text of the record calls up to 30% inactive
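Agonist mode: compounds alone added to overnight-plated D2 PathHunter cells for 90 min at 37 C, with 57 uM final dopamine (EC100) defining full response. Beta-arrestin recruitment detected by chemiluminescent reagent, read after 1 h at ambient temperature.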
Six1-Eya2 inh – inhibitors of human Six1/Eya2 interaction; Q15475+O00167; AlphaScreen GST-Six1/His-Eya2 binding, biochemical; stronger effect = lower value; control for the full effect not named in the record; activity change, % (test concentration not listed); 0.56% of 360,000 active; in the data active = activity change below about -65%; inconclusive = about -30% to -65%; inactive = above about -30%; note: % is set by controls: 0 for no effect and ±100 for the full control effect; compound concentration not given in the record
Target sequence (O00167 whole entry, looked up): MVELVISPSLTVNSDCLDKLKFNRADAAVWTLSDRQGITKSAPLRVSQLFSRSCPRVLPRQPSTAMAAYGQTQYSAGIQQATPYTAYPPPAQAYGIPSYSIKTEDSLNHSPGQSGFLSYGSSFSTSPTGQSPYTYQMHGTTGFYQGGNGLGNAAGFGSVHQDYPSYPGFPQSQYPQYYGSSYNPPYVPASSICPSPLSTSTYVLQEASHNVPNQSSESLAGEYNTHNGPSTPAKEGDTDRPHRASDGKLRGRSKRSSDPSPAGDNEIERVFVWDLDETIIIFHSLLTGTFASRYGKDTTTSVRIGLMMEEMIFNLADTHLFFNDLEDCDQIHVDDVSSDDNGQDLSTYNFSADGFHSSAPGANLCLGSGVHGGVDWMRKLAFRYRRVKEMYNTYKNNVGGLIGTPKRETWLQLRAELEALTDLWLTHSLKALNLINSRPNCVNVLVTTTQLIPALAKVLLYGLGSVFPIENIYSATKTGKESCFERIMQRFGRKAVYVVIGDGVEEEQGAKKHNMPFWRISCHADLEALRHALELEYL
Target sequence (Q15475 whole entry, looked up): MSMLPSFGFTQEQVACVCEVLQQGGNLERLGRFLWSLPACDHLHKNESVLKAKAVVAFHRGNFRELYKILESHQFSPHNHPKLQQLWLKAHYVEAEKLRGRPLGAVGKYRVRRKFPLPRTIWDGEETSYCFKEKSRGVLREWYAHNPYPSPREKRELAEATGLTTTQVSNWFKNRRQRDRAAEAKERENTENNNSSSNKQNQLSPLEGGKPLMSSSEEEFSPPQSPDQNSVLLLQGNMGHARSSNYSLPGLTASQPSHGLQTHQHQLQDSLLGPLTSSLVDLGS
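AlphaScreen luminescence read after one hour at 37 °C in darkness. Pin-transferred compounds met GST-Six1 and His-Eya2 protein (5X stock 250 nM/500 nM) plus glutathione donor and Ni-chelate acceptor beads (5X, 50 ug/mL).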
TRPML1 ag – activates the human TRPML1 channel. AID 624414. 0.12% of 410,000 active. activation, % (no concentration beside the values). TRPML1-expressing cells, Ca2+ dye fluorescence, FDSS; host cell line not named in the record; reference of the full effect not given here; in the data active = activation above about 50%; inconclusive = about 30% to 50%; inactive = below about 30%; note: 0% is about no effect; the text of the record puts the active cut at 80%
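Cells: TRPML1-DL, 1X Tet inducer, ~16 h at 37 degrees C/5% CO2. Dye: ABD Ca8 no-wash + quencher, 45-90 min RT. Read: 10 s baseline, compound add, 110 s agonist phase; 54-4 EC80 (4uM final), 110 s antagonist phase.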
CtBP-E1A blk – blocks the CtBP interaction with E1A | activity change, % (no concentration beside the values) | 0.49% of 340,000 active | AlphaScreen GST-E1A/His-CtBP binding, 1536-well; stronger effect = lower value; control for the full effect not named in the record; in the data active means activity change below about -65%; inconclusive means about -30% to -65%; inactive means above about -30%; note: % is set by controls: 0 for no effect and ±100 for the full control effect; compound concentration not given in the record
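Homogeneous bead-based format: GST-tagged E1A captured on glutathione donor beads, His-tagged CtBP on nickel acceptor beads; compounds precede bead addition by 2 h at 37 °C.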
Numbers without * were called inactive; ? = inconclusive; . = no result given; & = joins results of further samples; [ ] = remark or other dose. Rows were taken by chance (roughly 1.3% active in at least one column).

SMILES	PINK1 modulator	D2 PAM	D2 ag	Six1-Eya2 inh	TRPML1 ag	CtBP-E1A blk
C/C(=N\NC(=O)CSc1nc2ccccc2s1)c1ccco1	-0.6%	0	1.5	-3	2.6	-8
O=C(c1cnsn1)N1CCC(CO)(Cc2cccc(F)c2)CC1	-0.3%	0	0.0	9	-0.3	1
COc1cccc(-c2nc(CS(=O)(=O)CC(=O)N3CCc4ccccc43)c(C)o2)c1	3.8%	-5	2.5	-2	-0.1	-1
CCNC(=O)C1Cc2ccccc2CN1S(=O)(=O)c1ccc(F)cc1 (stereo not given)	-0.9%	-9	-1.1	8	0.5	19
CCOC(=O)N1CCN(C(=O)c2cnn3ccccc23)CC1	0.2%	-3	-7.1	4	-0.7	4
COC(=O)c1cc(NCc2cccs2)ccc1N1CCOCC1	2.6%[38.3 µM]	-7	-1.3	-1	-0.4	-1
Cn1ccnc1SCC(=O)Nc1cccc(C#N)c1	1.6%	-1	-0.1	0	1.8	2
CC(=O)c1ccc(N2CCN(C(=O)CCCn3c(=O)[nH]c4ccsc4c3=O)CC2)cc1	-1.3%&0.8%	2	0.7	-1	0.3&-0.1	-3
O=C(/C=C/c1cccc([N+](=O)[O-])c1)NCCSCc1ccco1	-0.9%	-7	-0.7	1	0.8	16
COc1ccc(C2=C(C#N)C(=O)OC2)cc1	1.0%	-4	0.5	0	-0.3	3
O=C(Nc1ccccc1)N1C2CCC1CC(O)(c1cccnc1)C2 (stereo not given)	0.5%	-8	-4.6	4	0.2	2
CCC(C)(C)C(=O)Nc1nnc(CCc2ccccc2)s1	4.1%	-5	-1.4	0	-1.0	.
Cc1noc(NS(=O)(=O)c2ccc(NC(=O)c3cc4ccccc4o3)cc2)c1C	-1.6%	-6	-0.4	-11	0.1	-1
O=C(CN1CCN(C(=O)c2ccco2)CC1)Nc1ccc(F)cc1F	0.0%	-13	1.8	3	-0.7	2
CCn1c2ccccc2c2cc(NC(=O)CSc3nnc(-c4ccc(OC)cc4)n3N)ccc21	7.2%	1	-0.8	2	1.8	-2
COc1cc(CN2CCC(C(=O)NCC(C)(C)CN(C)C)CC2)ccc1OCc1ccccc1	13%	-18	1.3	12	.	.
N#CCCN(C(=O)COC(=O)C1CCN(c2ccc(C(F)(F)F)cn2)CC1)c1ccc(F)cc1	-1.2%	2	0.8	8	2.7	-3
Cc1ccccc1C(=O)NC(=S)NCCN1CCOCC1	0.1%	-13	-3.1	2	0.3	4
COc1ccccc1NC(=O)N1CCc2c([nH]c3ccccc23)C1C(F)(F)F (stereo not given)	2.8%	-2	-3.9	-9	1.8	0
O=c1c2ccccc2nc2n1C(CSc1ccc(Br)cc1)CN2 (stereo not given)	-0.7%	-18	-1.8	-1	-0.7	-5
O=[N+]([O-])c1ccc2nc(-c3ccccc3)cc(-c3ccccc3)c2c1	13%	-3	0.0	-15	0.1	-12
COc1ccccc1OC(=O)c1ccc2nsnc2c1	5.3%[38.3 µM]	9	-2.4	-1	2.4	-2
CCOc1ccccc1CNS(=O)(=O)c1ccc2c(c1)oc(=O)n2C	-0.1%	4	4.3	3	0.8	11
CCC(=O)N1CCc2cc(S(=O)(=O)CCC(=O)NCc3cccs3)ccc21	3.2%	-1	0.1	6	1.0	0
CS(=O)(=O)c1ccc(Cl)c(NC(=O)COC(=O)c2cccc(S(=O)(=O)N3CCCCC3)c2)c1	?	-37	-4.7	-4	0.9	3

Brought forward from above: 3 compounds, then new ones.
SMILES	PINK1 modulator	D2 PAM	D2 ag	Six1-Eya2 inh	TRPML1 ag	CtBP-E1A blk
CCOc1ccccc1CNS(=O)(=O)c1ccc2c(c1)oc(=O)n2C	-0.1%	4	4.3	3	0.8	11
CCC(=O)N1CCc2cc(S(=O)(=O)CCC(=O)NCc3cccs3)ccc21	3.2%	-1	0.1	6	1.0	0
CS(=O)(=O)c1ccc(Cl)c(NC(=O)COC(=O)c2cccc(S(=O)(=O)N3CCCCC3)c2)c1	?	-37	-4.7	-4	0.9	3
Cc1ccc(C(=O)c2sc3c(c2N)c(=O)[nH]c(=O)n3CCc2ccccc2)cc1	?	1	-5.5	-4	1.0	2
Cc1ccc(NC(=O)CC2=NC(=O)C(CC(=O)Nc3ccccc3C)S2)cc1 (stereo not given)	-1.7%	-5	-1.5	11	0.0	-14
Cc1ccc(-c2nnc(Cc3ccc([N+](=O)[O-])cc3)o2)cc1	1.5%	-6	-0.9	-7	0.0	-1
O=C(CCC(=O)N/N=C/c1cc(Cl)cc(Cl)c1O)NCc1ccccc1	1.1%	-19	-4.1	?	-0.4	-29
O=C1CC(C(=O)Nc2ccc(F)c(Cl)c2)N=C(N2CCCCC2)N1 (stereo not given)	1.3%	-10	-3.4	19	-0.7	0
CC(OC(=O)C1COc2ccccc2O1)C(=O)N(C)c1ccccc1 (stereo not given)	-0.9%	-11	-2.6	-4	-0.3	7
COc1ccc(C(=O)N=C2SC3CS(=O)(=O)CC3N2Cc2ccc(F)cc2)cc1 (stereo not given)	1.1%	-3	-2.5	3	-0.4	0
CCOC(=O)C1CCN(Cc2cnc(Oc3ccc(C(C)(C)C)cc3)s2)CC1	2.4%	?	0.9	-3	20	3
Cn1cc(-c2csc(C(O)(c3ccccc3)C(F)(F)F)n2)cn1 (stereo not given)	6.6%	1	1.8	5	-0.8	2
COc1cc(/C=N/Nc2nc3ccccc3o2)cc(OC)c1O	.	15	8.5	-8	1.0	-24
COc1cccc(CNC(=O)CCC2CCCN(Cc3ccc(OC(F)F)cc3)C2)c1 (stereo not given)	0.1%	-9	-6.2	2	-0.5	-7
Cc1ccc(N2C(=O)CC(Cn3nc(C)cc3C)C2=O)cc1 (stereo not given)	0.4%	-10	-0.7	5	-0.3	15
O=C(NCCS(=O)(=O)N1CCN(c2ccccc2F)CC1)c1c(F)cccc1F	?	19	-4.2	13	-0.1	-17
COc1ccc(C(=O)NN(C)c2nc(-c3ccccc3)nnc2C(F)(F)F)cc1	9.7%	-3	-1.6	9	0.0	12
COc1cc(NC(=O)c2ccc(-c3csc(C)n3)cc2)c(OC)cc1Cl	4.3%	0	7.6	2	0.5	-14
CCOC(=O)c1cc(-c2ccc(OC(F)F)cc2)nc2nc(SC)[nH]c(=O)c12	9.2%	2	4.0	-3	0.6	6
COc1cc(=O)n(C)c2ccccc12	.	6	-4.1	-12	-0.1	-6
Oc1ccc(/C=N/NC(=S)N2CCOCC2)cc1	0.6%	3	1.3	-16	-0.3	-8
CCN1/C(=C/c2cc[n+](C)cc2)C=Cc2cc(C)ccc21	10µM*	19	4.6	-20	0.4	-18
CN(C)c1cccc(C(=O)Nc2cccc(F)c2)c1	0.1%	-23	0.0	-17	-0.6	-1
C[C@H]1CN([C@@H](C)CO)C(=O)c2cccc(NC(=O)C3CC3)c2O[C@H]1CN(C)Cc1ccc(-c2ccccc2)cc1	0.8%	-16	2.3	2	0.1	-5
COc1ccc(CN2CCC(n3nccc3NC(=O)C3CCCC3)CC2)cc1	-1.0%	-50	-5.3	-2	0.6	4
O=C(N/N=C/c1cccc(O)c1)c1ccc(COc2ccccc2Br)cc1	0.8%	-6	2.2	-20	0.2	-3
CCOc1ccc(NC(=O)C2CCN(S(=O)(=O)c3c(C)n[nH]c3C)CC2)cc1	-0.3%	-23	-3.7	-6	0.7	-1
O=C(O)c1ccc2c(c1)c1c3n2CCNC3CCC1 (stereo not given)	3.4%	-7	-4.6	1	0.2	-1

Some of these compounds in order of SMILES length, largest number first:
SMILES	PINK1 modulator	D2 PAM	D2 ag	Six1-Eya2 inh	TRPML1 ag	CtBP-E1A blk
COc1ccc(C(=O)N=C2SC3CS(=O)(=O)CC3N2Cc2ccc(F)cc2)cc1 (stereo not given)	1.1%	-3	-2.5	3	-0.4	0
CC(OC(=O)C1COc2ccccc2O1)C(=O)N(C)c1ccccc1 (stereo not given)	-0.9%	-11	-2.6	-4	-0.3	7
Oc1ccc(/C=N/NC(=S)N2CCOCC2)cc1	0.6%	3	1.3	-16	-0.3	-8

Next entries follow.
SMILES	PINK1 modulator	D2 PAM	D2 ag	Six1-Eya2 inh	TRPML1 ag	CtBP-E1A blk
Cc1cccc(NC(=O)c2ccccc2C(=O)O)c1	1.0%	-4	2.7	8	-0.1	1
CC(=O)c1ccc(NC(=O)CSc2nc3nn(-c4ccccc4)c(=O)c-3c3n2CCCCC3)cc1	1.8%	-4	-1.6	3	-0.1	8
COc1ccc(S(=O)(=O)N(CC(=O)NCc2ccco2)c2ccccc2)cc1	2.9%	5	0.5	4	-1.2	6
COc1cc(NC(=O)c2ccccn2)cc(OC)c1OC	-1.9%	-2	2.2	-7	0.0	.
Cc1cc(C)cc(-n2ncc3c2CCCC3NC(=O)CN2CCCCC2=O)c1 (stereo not given)	-1.3%	1	4.4	7	0.0	-1
COc1cc(F)ccc1-c1csc(C(O)c2ccc(F)cc2)n1 (stereo not given)	9.3%	-10	-4.4	15	1.5	9
Cc1ccc2c(c1)nc(-n1nc(C)cc1C)c1nnnn12	0.9%	-1	-3.6	-9	0.0	-6
CCOc1ccccc1N(C)C(=O)c1ccc2c(=O)n3c(nc2c1)CCCCC3	-1.4%	-8	-11	-1	-0.6	-9
COc1ccccc1N=C1SCC(=O)N1Cc1ccco1	0.6%	-14	3.2	8	1.4	2
COc1ccc(CCCc2nnc(SCC(=O)NN)o2)cc1	-0.2%	-7	-4.2	3	1.0	3
C/C(=N\NC(=O)c1c(Br)c(C)nn1C)c1cccc(NC(=O)c2ccccc2C)c1	-1.9%	-2	-7.2	5	-0.8	-7
O=C(c1ccc(C#CC2(O)CCCCC2)cc1)N1CCN(Cc2ccccc2)CC1	19%	-5	-0.1	-4	0.8	5
O=c1c(-c2cnn(-c3ccccc3)c2)coc2cc(O)ccc12	1.1%	-4	2.1	-6	-0.2	-1
Cc1ccc(-c2csc(C(O)c3cccc(Cl)c3)n2)cc1C (stereo not given)	4.5%	-9	-1.5	3	0.0	5
Cc1cc(C)c2c(N=NN(C)C)[nH]nc2n1	1.2%	10	-1.2	-3	1.9	-6
O=C(Nc1nccs1)c1ccc(S(=O)(=O)c2ccccc2)cc1	11%	-13	2.5	8	-0.7	11
COC(=O)c1cc2ccsc2n1Cc1cccc(F)c1	?	-2	2.1	20	1.5	27
COc1ccc(OC)c(NC(=O)c2ccccc2SC)c1	-2.4%[38.3 µM]	-13	-0.8	-1	0.4	-1
COc1ccc(NC2=CC(=O)CC(C)(C)C2)cc1	-0.3%	-2	-2.6	4	1.3	.
COc1ccc(S(=O)(=O)N2CCN(CC(=O)c3ccc(O)c(O)c3)CC2)cc1	0.1%	1	4.9	-4	-0.5	.
CCN(CC)S(=O)(=O)c1ccc(NC(=S)Nc2ccccc2)cc1	2.0%	-3	-3.8	3	1.3	.
CCC(=O)Nc1ccc(/C(C)=N\NS(=O)(=O)c2ccc(C)cc2)cc1	5.6%	-3	-1.8	1	2.2	0
Cc1cc(Br)cn2c(Cc3ccsc3)c(-c3ccc(C#N)cc3)nc12	0.9%	-9	-5.4	6	2.1	-23
COc1cc(OC)cc(C(=O)N2CCC(C(=O)c3ccc(F)cc3)CC2)c1	0.2%	-11	2.7	-21	-0.2	3
